Screens deposited in PubChem by National Center for Advancing Translational Sciences (NCATS).
VDR inh = Inhibitors of the vitamin D receptor (VDR): qHTS; Vitamin D3 receptor (Homo sapiens), P11473; VDR-SRC2-3 peptide fluorescence polarization, 2 h; Potency, µM, inactives show max response, negative = inhibition, hits mostly inhibitors; hit rate 0.93% among 400,000; AID 504847, 2011; active = well fitted inhibition curve with a large enough effect; inconclusive = small, poorly fitted or top-dose-only effect, or another doubt; inactive = no such curve, though single readings can be large or run the other way; also: series mostly up to about 120 µM
Target sequence (P11473 whole entry, looked up): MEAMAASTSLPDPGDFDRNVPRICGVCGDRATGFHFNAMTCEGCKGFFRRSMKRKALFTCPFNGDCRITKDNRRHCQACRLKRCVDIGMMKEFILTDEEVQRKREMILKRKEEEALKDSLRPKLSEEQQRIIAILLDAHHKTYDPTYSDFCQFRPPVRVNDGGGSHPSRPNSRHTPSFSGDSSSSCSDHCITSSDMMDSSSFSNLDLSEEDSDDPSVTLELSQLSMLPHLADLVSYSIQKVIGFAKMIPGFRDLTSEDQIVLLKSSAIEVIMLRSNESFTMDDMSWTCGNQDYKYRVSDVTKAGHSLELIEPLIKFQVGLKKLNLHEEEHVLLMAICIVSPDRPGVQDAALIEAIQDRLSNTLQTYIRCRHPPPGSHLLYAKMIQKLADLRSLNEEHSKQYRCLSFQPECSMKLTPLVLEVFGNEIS
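Measured by FP: displacement of SRC2-3 coactivator peptide from VDR by library compounds, following a two-hour ambient incubation.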
* marks the source's active call; other numbers are inactive results; ? = inconclusive; & = joins results of further samples. % is scaled to controls: 0 for no effect and ±100 for the full control effect; potency is read from the fitted curve at half-maximal effect.

CCOc1ccc(OCc2cccc(C(=O)N3CCCC3)c2)cc1
  VDR inh: -19%
CN(/C(=N\S(=O)(=O)c1ccccc1)C(F)(F)F)c1ccccc1
  VDR inh: 6%
O=C(c1ccccc1)c1cc(-c2ccccn2)c(N2CCOCC2)s1
  VDR inh: -14%
COc1ccc(-c2c(-c3ccsc3)oc(=O)c3cc(OC)c(OC)cc23)cc1
  VDR inh: -11%
CCCNC(=S)Nc1ccccc1
  VDR inh: -3%
CC(=O)Nc1ccc(S(=O)(=O)N2CCN(Cc3cccc([N+](=O)[O-])c3)CC2)cc1
  VDR inh: 8%
CCNC(=O)CCSc1nnc(-c2ccncc2)o1
  VDR inh: 2%
CCOP(=O)(c1c(F)c(F)c(F)c(F)c1F)C(O)c1ccccc1 (stereo unspecified)
  VDR inh: 18%
CCc1c(C(=O)N/N=C/c2ccc(OCc3ccc(F)cc3)c(OC)c2)nnn1-c1nonc1N
  VDR inh: -2%
COc1ccc(CSCCc2n[nH]c(=S)n2-c2ccccc2)cc1
  VDR inh: -16%

O=c1c(C=Nc2cccc(C(F)(F)F)c2)c[nH]n1-c1cccc(Cl)n1
  VDR inh: -3%
Cc1ccc(CNC(=O)c2cc3c(=O)n4cccc(C)c4nc3s2)cc1
  VDR inh: -2%
Cc1cccnc1NC(=O)c1ccc(NS(=O)(=O)c2ccc3[nH]c(=O)[nH]c3c2)cc1
  VDR inh: -13%
Oc1ccc(/C=N/n2c(-c3ccco3)csc2=Nc2cccnc2)c(O)c1
  VDR inh: 1%
COc1ccccc1NC(=O)c1cn(-c2ccccc2)nc1-c1ccccc1
  VDR inh: 3%
CCOc1ccc(-c2nc(SCC(=O)Nc3ccc4c(c3)OCCO4)c(-c3ccc(F)cc3)[nH]2)cc1
  VDR inh: 5%
COc1ccc(OC)c(NC(=O)CSc2ccc3nnc(-c4cccnc4)n3n2)c1
  VDR inh: -4%
CCOc1ccc(S(=O)(=O)N2CCCCC2)cc1NC(=O)C1COc2ccccc2O1 (stereo unspecified)
  VDR inh: 0%
Cc1onc(-c2ccccc2)c1C(=O)OCC(=O)Nc1ccc(C#N)cc1
  VDR inh: 24%
CC(=O)OCC1=C(C(=O)O)N2C(=O)C(NC(=O)Cn3nc(C(F)F)c(Cl)c3C)C2SC1 (stereo unspecified)
  VDR inh: -15%

O=C(NCc1ccccc1)C1(CC2CC(c3ccccc3)=NO2)CCNCC1 (stereo unspecified)
  VDR inh: -11%
COc1ccc(N2CCN(C(=O)c3ccc4c(c3)OCO4)CC2)cc1
  VDR inh: -14%
Cc1ccc(-n2c(SCc3ccccc3F)nc3[nH]ncc3c2=O)cc1C
  VDR inh: 8%
COc1cc(/C=C2\SC(=S)N(CC(=O)NC(C)(C)C)C2=O)cc(OC)c1OC
  VDR inh: -5%
Cc1ccccc1-c1cc(NCCN2CCOCC2)ncn1
  VDR inh: -22%
COCCn1c(SCC(=O)NCC(c2ccccc2)N(C)C)nc2sc3c(c2c1=O)CCC3 (stereo unspecified)
  VDR inh: -1%
CCOC(=O)c1c(NC(=O)c2cc(-c3ccc(Br)cc3)on2)sc(C(C)=O)c1C
  VDR inh: -24%
COc1ccccc1-c1nc(N2CCN(C)CC2)c2ccccc2n1
  VDR inh: -10%
CCOc1ccc(-c2cccc(NC(=O)c3ccco3)c2)nn1
  VDR inh: 3%
O=c1[nH]c(CSc2ncnc3sc(-c4ccccc4)cc23)nc2ccccc12
  VDR inh: 14%

O=C(CSc1ncnc2c1oc1ccccc12)NC1CCCC1
  VDR inh: -6%
O=C(COC(=O)c1cc(=O)[nH]c2ccccc12)NC1CCCCCCC1
  VDR inh: 0%
CC1CC=CC2C1C(=O)N(Cc1ccccc1)C2c1ccc2ccccc2c1Br (stereo unspecified)
  VDR inh: -19%
Cc1ccccc1-c1noc(-c2ccc(N3CCC(C)CC3)c([N+](=O)[O-])c2)n1
  VDR inh: 14%
Cn1c(C(=O)N2CCC(C(N)=O)CC2)cc2c(=O)n(C)c3ccccc3c21
  VDR inh: -18%
COc1ccc(C2C=C(C34CC5CC(CC(C5)C3)C4)NC(=S)N2)cc1OC (stereo unspecified)
  VDR inh: ?
CC(=O)c1sc(NC(=O)C2CCN(C(=O)c3ccccc3C)CC2)nc1-c1ccccc1
  VDR inh: 0%
COc1cc(/C=N/NC(=O)c2cnccn2)cc(OC)c1OC
  VDR inh: 1%
O=C1c2cccc(OCC(=O)N3CCCc4ccccc43)c2CCN1Cc1ccccc1
  VDR inh: -15%
O=C(COC(=O)CCSc1ccccc1Cl)NCc1ccco1
  VDR inh: 8%

Quoted at random: 4 compounds from above.
O=C(CSc1ncnc2c1oc1ccccc12)NC1CCCC1
  VDR inh: -6%
Cn1c(C(=O)N2CCC(C(N)=O)CC2)cc2c(=O)n(C)c3ccccc3c21
  VDR inh: -18%
CC1CC=CC2C1C(=O)N(Cc1ccccc1)C2c1ccc2ccccc2c1Br (stereo unspecified)
  VDR inh: -19%
COc1cc(/C=N/NC(=O)c2cnccn2)cc(OC)c1OC
  VDR inh: 1%

(cont.)
COc1ccc(C=C2c3ccccc3C(=O)c3ccccc32)cc1O
  VDR inh: ?
CCOC(=O)c1cnn(-c2ccc(C(=O)Nc3cccc(C(C)=O)c3)cc2)c1N
  VDR inh: 14%
O=C(Nc1cccc(Cl)c1)c1cnccn1
  VDR inh: 8%
COc1ccc(NC(=O)N2CCCC3(CCN(C(=O)c4cccc(F)c4)CC3)C2)cc1
  VDR inh: 4%
COCCC(=O)N1CCC(Oc2ccc(C(=O)N3CCCCC3COC)cc2)CC1 (stereo unspecified)
  VDR inh: 15%
CCOc1ccc(-c2cnc(NCc3ccc(C(F)(F)F)cc3)n2C)cc1
  VDR inh: 4%
O=c1c2cc3ccccc3n2cnn1Cc1ccccc1F
  VDR inh: 7%
O=C(NC1CCCCC1c1ccccc1)c1ccccc1 (stereo unspecified)
  VDR inh: -11%
COC(=O)c1cccc(S(=O)(=O)N2CCN(c3nc4ccccc4s3)CC2)c1
  VDR inh: 4%
CCOC(=O)c1cccc(NC(=O)CSc2nncn2-c2ccccn2)c1
  VDR inh: -11%

CCOC(=O)c1ccc(NC(=O)CCS(=O)(=O)c2ccc(Br)s2)cc1
  VDR inh: -13%
Cc1cc(C)c[n+](-c2nc3ccccc3nc2[N-]S(=O)(=O)c2ccc(Cl)cc2)c1
  VDR inh: -20%
Cc1cc(C)n2ncc(C(=O)NCc3ccc(Cl)cc3)c2n1
  VDR inh: 11%
COc1ccc(/C=C2\CCC(C3CCCC3)C2=O)cc1 (stereo unspecified)
  VDR inh: -11%
CCOc1ccc(CN2CCNC(=O)C2CC(=O)NC2CCCCCC2)cc1 (stereo unspecified)
  VDR inh: -1%
CCOc1ccc(NC(=O)CC2C(=O)N(c3ccccc3)C(=O)N2Cc2ccco2)cc1 (stereo unspecified)
  VDR inh: -5%
CCc1ccccc1NC(=O)Cn1nnc(C(=O)NCc2cccs2)c1N
  VDR inh: -5%&-12%
Cc1cc(C)c(NC(=O)CN2CCN(C)CC2)c(C)c1
  VDR inh: -16%
CN(CC[C@@H](Oc1ccc(-c2ccccc2)cc1)c1ccc(F)cc1)CC(=O)O
  VDR inh: -8%
Cc1ccc(S(=O)(=O)Nc2c(C)cc(C)nc2Cl)cc1
  VDR inh: 4%

COc1cc(/C=N/NC(=O)c2ccccc2)ccc1OS(=O)(=O)c1ccccc1
  VDR inh: 27%
Cc1ccc(NC(=O)CN2C(=O)NC3(CCC(C)CC3)C2=O)c(Cl)c1 (stereo unspecified)
  VDR inh: 16%
COc1ccc(CCN2C(=O)NC(NS(=O)(=O)c3ccc(N)cc3)(C(F)(F)F)C2=O)cc1OC (stereo unspecified)
  VDR inh: -14%
CCc1ccc(C(=O)c2oc3nc(C)cc(C)c3c2N)cc1
  VDR inh: -7%
Cn1c(N)c(C(=O)COC(=O)c2ccc(-c3ccccc3)cc2)c(=O)n(C)c1=O
  VDR inh: -4%
COc1cc(C=Nc2cccc([N+](=O)[O-])c2C)ccc1OC(C)=O
  VDR inh: -18%
CC(C)(C)SCCNC(=O)/C=C/c1ccc([N+](=O)[O-])cc1
  VDR inh: -16%
O=C(Cc1ccc([N+](=O)[O-])cc1)N1CCCCCC1
  VDR inh: -22%
CCCCOc1ccc(C(=O)N2CC(C)OC(C)C2)cc1 (stereo unspecified)
  VDR inh: -5%
Cc1ccc(NC(=O)c2ccc(F)c(S(=O)(=O)N3CCOCC3)c2)cc1F
  VDR inh: 0%

CCc1ccc(NC(=O)c2cc3c(=O)n(Cc4cccs4)ccc3nc2C)cc1
  VDR inh: 4%
Cc1cccc(C)c1NC(=O)CSc1nnc(-c2ccoc2C)n1C
  VDR inh: -7%
COc1cccc(NC(=S)NC(=O)c2c(Cl)c(C)nn2C)c1
  VDR inh: -4%
CCOC(=O)C1CCN(C(=O)CC(C)S(=O)(=O)c2ccc3c(c2)NC(=O)CO3)CC1 (stereo unspecified)
  VDR inh: -12%
Cc1ccc(NC(=O)c2ccc3c(=O)n4c(nc3c2)CCC4)cc1F
  VDR inh: -6%
CC1=C[C@@H](C)[C@@H](c2ccccc2)OC1=O
  VDR inh: 4%&-7%
COC(=O)CCNC(=O)c1ccc2[nH]c(C)c(C)c2c1
  VDR inh: 17%
COc1cccc(CN2CCC(C(=O)Nc3ccc(Oc4cccnc4)cc3)CC2)c1
  VDR inh: -5%
CCOc1ccc(S(=O)(=O)n2c([N+](=O)[O-])cnc2C)c(C)c1C
  VDR inh: -3%
O=C(NCC1CC1)C1(S(=O)(=O)c2ccccc2)CC=CC1
  VDR inh: -17%

COCCNC(=O)c1sc2nc(-c3ccccc3)cn2c1C
  VDR inh: -25%
COC(=O)c1c(NC(=O)/C(C#N)=C/c2ccccc2)sc2c1CCC2
  VDR inh: ?
Cc1cccc(-c2c3c(=O)n(C)c(=O)n(C)c3cn2C(C)C)c1
  VDR inh: 19%
O=C(c1ccc(-c2ccccc2)cc1)c1ccccc1C(=O)N1CCOCC1
  VDR inh: -6%
Cc1nn(C(C)C(=O)NCc2ccc(OC(C)C)cc2)c(=O)c2c1sc1ccccc12 (stereo unspecified)
  VDR inh: 2%
COc1ccc(N2CCN(CC(O)COCCOc3ccc(Br)cc3)CC2)cc1 (stereo unspecified)
  VDR inh: 21%
CCc1noc(C)c1C(=O)OCC(=O)N(CC)c1c(N)n(Cc2ccccc2)c(=O)[nH]c1=O
  VDR inh: 1%
COc1cccc(C(=O)Nn2c(-c3cccs3)nc3ccccc3c2=O)c1OC
  VDR inh: -5%
CC[N+](CC)(CC)CCC(O)(c1ccccc1)C1CCCCC1 (stereo unspecified)
  VDR inh: 11%
COc1ccc(CN(Cc2ccco2)S(=O)(=O)c2ccc(S(=O)(=O)N3CCCC3)cc2)cc1
  VDR inh: 5%

CC(=O)N1CCc2c(sc3c2c(=O)n(-c2cc(Cl)ccc2C)c(=O)n3C)C1
  VDR inh: 13%
Cc1ccc2c(c1)c1c3n2CCN(C(=O)C2CC2)C3CCC1 (stereo unspecified)
  VDR inh: 0%
COc1cccc(Cn2ccn(-c3ccc(F)cc3)c(=O)c2=O)c1
  VDR inh: -7%
CS(=O)(=O)NCCSc1cc(C(F)(F)F)nc2ccccc12
  VDR inh: 4%
COc1ccccc1NS(=O)(=O)c1ccc(/C=C/C(=O)N2CCN(C(C)=O)CC2)cc1
  VDR inh: -9%
CC(C)(C)C1=C(C#N)C(c2cc3c(cc2Br)OCO3)C(C#N)=C(N)O1 (stereo unspecified)
  VDR inh: -17%
CC(NC(=O)CNC(=O)OCc1ccccc1)C(=O)N1CC(O)CC1C(=O)OCc1ccccc1 (stereo unspecified)
  VDR inh: -9%
Cc1ccc(C(=O)Cc2ccccc2)cc1
  VDR inh: -10%
Cc1c(N)cccc1-n1cccc1
  VDR inh: 3%
CCOc1ccc(CNC(=O)C2CCN(C(=O)c3ccc(-n4ccc5ccccc54)s3)CC2)cc1
  VDR inh: 6%

COc1ccc(C(=O)NC(=S)Nc2ccc(CN3CCCCC3)cc2)cc1Cl
  VDR inh: -3%
O=C(NCc1ccco1)c1cc(-c2cccc(Cl)c2)on1
  VDR inh: 7%
O=C(Nc1nnc(CCN2CCCCC2)s1)C1CCCCC1
  VDR inh: -2%
Cc1ccc(C(=O)NC(=S)NCc2ccccc2)cc1Br
  VDR inh: -10%
CNC(=O)C(C)Sc1ccc(S(=O)(=O)N2CCOCC2)cn1 (stereo unspecified)
  VDR inh: -18%
Cc1cc2c(cc1S(=O)(=O)CCC(=O)NCc1ccccc1)OCC(=O)N2
  VDR inh: -6%&-2%
COc1cccc(C2C(C(=O)Nc3ccc(Cl)cc3)=C(C)Nc3c(C(=O)Nc4ccccc4)cnn32)c1OC (stereo unspecified)
  VDR inh: 0%
O=C(OCc1cccc2ccccc12)C1CC(=O)N(c2ccccc2)C1 (stereo unspecified)
  VDR inh: 3%
O=C(NCc1ccccc1)/C(=C\c1ccc(O)cc1)NC(=O)c1ccco1
  VDR inh: -25%
O=C(CSc1ncnc2c1oc1ccccc12)OCc1ccccc1
  VDR inh: 25%

CC(C)C(=O)Nc1nnc(CCN2CCOCC2)s1
  VDR inh: -15%
COc1ccc(C(=S)N2CCOCC2)cc1OC(=O)c1ccc([N+](=O)[O-])cc1
  VDR inh: ?
O=c1[nH]snc1N1CCOCC1
  VDR inh: -23%
CCC(=O)N(CCc1ccccc1)Cc1cc2cc(C)ccc2[nH]c1=O
  VDR inh: -2%
CCOC(=O)CSc1ncnc2c(C(=O)OCC)c3n(c12)CCC3
  VDR inh: -8%
COc1cccc(C2NC(c3cccc(OC)c3O)C(C)C(=O)C2C)c1O (stereo unspecified)
  VDR inh: 9%
CC1=CC(=C(C#N)c2nc3ccccc3s2)C=C(C)N1c1ccc(F)cc1F
  VDR inh: -18%
Cn1nc(-c2ccc(N3CCN(CCO)CC3)c([N+](=O)[O-])c2)c2ccccc2c1=O
  VDR inh: 3%
CCN1CCN(C(=O)c2ccc3c(c2)N(Cc2ccc(F)cc2)C(=O)c2ccccc2S3(=O)=O)CC1
  VDR inh: -8%
COC(=O)C(NC(=O)c1ccc(C)cc1)(Nc1cccc(C)n1)C(F)(F)F (stereo unspecified)
  VDR inh: -12%
Cc1cc(C)c2c(N)c(C(=O)c3ccc(Br)cc3)oc2n1
  VDR inh: 7%

Not all compounds are listed (hit frequency here may not be typical).
